Source: PubChem
VACV Venus inh = inhibitors of vaccinia virus (Venus reporter); Vaccinia virus Venus reporter expression, fluorescence; Potency, µM (doses to about 36.5 µM), inactives show at the top dose activity change, negative = inhibition, usual class: inhibitors; 0.46% of 330,000 active; AID 720580; active means well fitted inhibition curve with a large enough effect; inconclusive means small, poorly fitted or top-dose-only effect; inactive means no such curve, though single readings can be large or run the other way; tested in A549 cells; also: nearly all actives have a fitted effect of over 30% in size; inactives centre near -10
Vaccinia mCherry = vaccinia inhibition (mCherry reporter) | Vaccinia virus mCherry reporter infection, fluorescence; about a quarter of the inactives have no number | Potency, µM (doses to about 36.5 µM), without a hit: at the highest dose activity change, negative = inhibition, usual class: inhibitors | 0.63% of 310,000 active; active = well fitted inhibition curve with a large enough effect; inconclusive = small, poorly fitted or top-dose-only effect; inactive = no such curve, though single readings can be large or run the other way; tested in A549 cells; also: nearly all actives have a fitted effect of over 35% in size; inactives centre near -10
An asterisk follows results filed as active; i = inactive; ? = inconclusive; . = no result given; & = joins results of further samples; [ ] = remark or other dose. % is scaled to controls: 0 for no effect and ±100 for the full control effect; potency is read from the fitted curve at half-maximal effect. The order is random, and some 0.88% of all compounds hit somewhere here.

Every second line gives: VACV Venus inh	Vaccinia mCherry
1: CC(C)(C)OC(=O)N1CCC(Cc2cc(-c3ccccc3)no2)(C(=O)O)CC1
→ -5%	i
2: O=C(NC(=O)N1CCSCC1)c1c(Cl)cccc1Cl
→ 2%	-8%
3: Cc1cccc(N=C2CCCC2C(=O)Nc2cccc(C)c2C)c1C (configuration not stated)
→ -6%	i
4: O=C(Nc1cc(C(F)(F)F)ccc1N1CCCCC1)c1cccc([N+](=O)[O-])c1
→ -19%	-29%
5: CCOC(=O)[C@]12CCCC=C1N(Cc1ccc(Cl)cc1Cl)C(=O)[C@H](CC(=O)N1CCCC1)C2
→ -7%	-13%
6: CCOP1(=S)Oc2cc3c(cc2C(C(=O)OC)(C(F)(F)F)O1)OCO3 (configuration not stated)
→ -12%	i
7: Cc1cccc(OCC(=O)Nc2ccccc2F)c1
→ -6%	0%
8: CCOc1cc(NC(=S)NCC2CCCO2)c(OCC)cc1NC(=O)CC(C)C (configuration not stated)
→ 0%	i
9: COc1ccccc1C(=O)COC(=O)CSCC(=O)Nc1cc(C)on1
→ -7%	-9%
10: CC12CCC(C(=O)Nc3nc4ccccc4s3)(OC1=O)C2(C)C (configuration not stated)
→ -12%	i
11: COc1ccc2oc(=O)c(C(=O)NCCc3c(C)[nH]c4ccc(F)cc34)cc2c1
→ ?	?
12: CCN(Cc1ccccc1)S(=O)(=O)c1ccc(C(=O)N(CCCN(C)C)c2nc3c(F)cccc3s2)cc1
→ -19%	-23%
13: O=C1CC(c2nnc(Cc3c(F)cccc3Cl)o2)CN1c1ccccc1 (configuration not stated)
→ -4%	-2%
14: COc1cccc(CNC(=O)c2cc3c(=O)oc4ccc(C)cc4c3s2)c1
→ -27%	?
15: OC[C@@H]1CN(Cc2ccc(Cl)cc2)C[C@H](n2cnc3c(NCc4ccncc4)ncnc32)O1
→ ?	?
16: O=c1c2ccccc2nc(/C=C/c2cccc3ccccc23)n1-c1ccccc1Cl
→ ?	-25%
17: O=C(COC(=O)COc1ccccc1[N+](=O)[O-])Nc1ccc2c(c1)OCO2
→ -2%	-13%
18: COCC(C)n1c(C)cc(C(=O)CSc2ccc(NC(C)=O)cc2)c1C (configuration not stated)
→ 8%	.
19: O=c1c2ccccc2ncn1CCc1ccncc1
→ -5%	-1%
20: C[C@H](CO)N1C[C@H](C)[C@@H](CN(C)C(=O)c2ccc3c(c2)OCO3)Oc2cc(/C=C/c3ccccc3)ccc2S1(=O)=O
→ ?	-18%
21: O=C1CCc2cc(NS(=O)(=O)c3cc(F)ccc3F)cc3c2N1CC3
→ -11%	i
22: COc1ccc(NC(=O)c2ccc(N3CCCC3=O)cc2)cc1Cl
→ -9%	i
23: CCc1c(Nc2ccccc2Cl)nc(N)[nH]c1=O
→ -5%	i
24: CNS(=O)(=O)c1ccc(NC(=O)c2cnn3c(C(F)F)cc(-c4ccccc4)nc23)cc1
→ -19%	i
25: O=C(NCCc1ccccc1)c1ccc2c(c1)N(Cc1ccccc1)C(=O)c1ccccc1S2(=O)=O
→ -16%	-16%
26: Cc1cc(C)cc(NC(=O)C2CCCN(c3ncccn3)C2)c1 (configuration not stated)
→ 11%	-11%
27: COc1ccc(Cn2nnnc2C(CC(C)C)N2CCC(C(N)=O)CC2)cc1 (configuration not stated)
→ -9%	i
28: COC(=O)[C@@]12CCCN1[C@H](c1ccc(-c3ccc(OC)cc3)cc1)[C@@H]1C(=O)N(C)C(=O)[C@@H]12
→ -19%	-10%
29: COc1ccc(NCc2ccccc2[N+](=O)[O-])cc1OC
→ 4%	-14%
30: CC1CCCN(S(=O)(=O)c2ccc(S(=O)(=O)N3CCC4(CC3)OCCO4)cc2)C1 (configuration not stated)
→ -2%	-13%

The list goes on (six carried over from the part before).
Every second line gives: VACV Venus inh	Vaccinia mCherry
25: O=C(NCCc1ccccc1)c1ccc2c(c1)N(Cc1ccccc1)C(=O)c1ccccc1S2(=O)=O
→ -16%	-16%
26: Cc1cc(C)cc(NC(=O)C2CCCN(c3ncccn3)C2)c1 (configuration not stated)
→ 11%	-11%
27: COc1ccc(Cn2nnnc2C(CC(C)C)N2CCC(C(N)=O)CC2)cc1 (configuration not stated)
→ -9%	i
28: COC(=O)[C@@]12CCCN1[C@H](c1ccc(-c3ccc(OC)cc3)cc1)[C@@H]1C(=O)N(C)C(=O)[C@@H]12
→ -19%	-10%
29: COc1ccc(NCc2ccccc2[N+](=O)[O-])cc1OC
→ 4%	-14%
30: CC1CCCN(S(=O)(=O)c2ccc(S(=O)(=O)N3CCC4(CC3)OCCO4)cc2)C1 (configuration not stated)
→ -2%	-13%
31: CCC(=O)Nc1ccc(-c2nnc(SCc3ccccc3)n2C)cc1
→ -26%	-15%
32: CCOC(=O)c1c(CSC(=N)N)n(-c2ccccc2)c2cc(Br)c(OC(C)=O)cc12
→ -18%	?
33: COc1ccc(NC(=O)C2CC(=O)N(c3ccc(C)cc3)C2)cc1S(=O)(=O)N1CCCCC1 (configuration not stated)
→ -13%	-7%
34: COc1cc(S(=O)(=O)NC(Cc2c[nH]c3ccccc23)C(=O)O)ccc1NC(C)=O (configuration not stated)
→ 1%	-12%
35: Cc1cc(C)cc(OCC(=O)NN2C(=O)c3ccccc3C2=O)c1
→ 2%	-7%
36: CON(C)S(=O)(=O)c1cccc(C(=O)NC2CCSc3ccccc32)c1 (configuration not stated)
→ -9%	-5%
37: O=C(CCCN1C(=O)/C(=C/c2cccc(Br)c2)SC1=S)N1CCOCC1
→ 2%	-9%
38: COCCCNc1c2c(nc3ccccc13)CCC2
→ -20%	-12%
39: O=C(NCc1ccccc1)/C(NC(=O)c1ccccc1)=C(/Sc1ccccn1)c1ccccc1
→ -6%	i
40: O=C(O)CSc1ncnc2scc(-c3ccccc3)c12
→ 1%	-3%
41: CN(CCC#N)C(=O)COC(=O)c1ccc(Cl)cc1O
→ -3%	i
42: Cc1cccc(NC2=C(Cl)C(=O)OC2OC(=O)c2ccco2)c1 (configuration not stated)
→ -9%	i
43: O=C(O)c1ccccc1/C=N/Nc1ccc(S(=O)(=O)N2CCCC2)cc1[N+](=O)[O-]
→ 5%	?
44: CC(Sc1nnc(C2CC2)n1N)C(=O)NC1CCCCC1C (configuration not stated)
→ -10%	-3%
45: O=C(c1ccccc1Cc1ccccc1)N1CCN(S(=O)(=O)c2ccccc2[N+](=O)[O-])CC1
→ -26%	-12%
46: COc1ccc(C(=O)NCC(c2cccnc2)N2CCc3ccccc32)cc1OC (configuration not stated)
→ -22%	-14%
47: COc1cc(S(=O)(=O)N2CCOCC2)c(OC)c(S(=O)(=O)N2CCOCC2)c1
→ -3%	-14%
48: Cc1cc(C)c2c(CC(=O)N3CCN(c4cccc(Cl)c4)CC3)coc2c1
→ 6%	-6%
49: COc1c2ccoc2c(OC)c2oc(=O)ccc12
→ -9%&3%	-9%&1%
50: CCOc1ccc(Cc2n[nH]c(=S)n2N)cc1
→ -6%	-14%
51: CCOC(=O)N1CCN(C(=O)c2ccc3nc(N4CCC(C)CC4)sc3c2)CC1
→ ?	.
52: C[C@@H]1CN([C@@H](C)CO)C(=O)CCCn2nncc2CO[C@H]1CN(C)S(=O)(=O)c1ccc2ccccc2c1
→ ?	-13%
53: CC(=O)OC1CC[C@@]2(C)C3=CC(=O)[C@]4(C)C(CC5OC6(OCC(C)CC6Br)C(C)C54)C3CC[C@H]2C1 (some centres not stated)
→ 0%	i
54: COc1ccccc1/C=C/C=N/n1c(-c2ccc(C)cc2)n[nH]c1=S
→ -12%	i
55: CSc1ccccc1NC(=O)COC(=O)c1c[nH]c(=O)[nH]c1=O
→ -3%	-7%
56: CCOc1cc(CNn2cnnc2SCC(=O)NC(C)(C)C)ccc1OCC(=O)NC(C)(C)C
→ -10%	-9%
57: CN(C)c1nc(N(C)C)nc(N2CC(CCl)OC2=N)n1 (configuration not stated)
→ -8%	-16%
58: COc1ccccc1N1CCN(c2ncccc2-c2nc(-c3ccc(Cl)cc3)no2)CC1
→ 4%	-8%
59: Cc1ccc(NC(=O)CSc2nsc(SCC(=O)Nc3ccc(C)cc3C)c2C#N)c(C)c1
→ 3%	-10%
60: O=C(O)c1ccc(CNC(=O)c2ccccc2NC(=O)c2cccc([N+](=O)[O-])c2)cc1
→ -15%	i
61: O=C(N/N=C/c1cccnc1)c1cc(-c2cccs2)nc2ccccc12
→ -22%	-7%
62: CC(C)(O)C#Cc1ccc(N2C(c3ccsc3)=Cc3ccc(F)cc3C2c2c[nH]c3ccc(C#N)cc23)cc1 (configuration not stated)
→ -18%	-20%
63: O=C(c1cc(-c2ccc(Br)cc2)n[nH]1)N1CCN(S(=O)(=O)c2ccc(Br)s2)CC1
→ -21%	-26%
64: COc1ccc(/C=N/NC(=O)c2nnn(-c3nonc3N)c2-c2cccc(OC)c2)cc1
→ 5%[7.34 µM]	11%[7.34 µM]
65: CCOC(=O)Cc1csc(SCc2nc3sc4c(c3c(=O)[nH]2)CCC4)n1
→ -8%	.
66: CC(=O)Nc1nc(-c2ccc(Cl)cc2)ns1
→ -14%	-21%
67: COc1ccc(-c2nn(-c3ccccc3)cc2/C=N/NC(=O)c2cccc(S(=O)(=O)Nc3ccccc3OC)c2)cc1
→ -16%	-15%
68: N#Cc1cc(N)ccc1Sc1ccc(Cl)cc1
→ -25%	.
69: Cc1ccc(NC(=O)Cn2cc3c(n2)CCCC3)c(Cl)c1
→ -12%	-5%
70: Cc1ccc(NC(=O)C2CCCN(C(=O)c3ccc(Cl)cc3)C2)cc1 (configuration not stated)
→ -17%	-18%
71: COc1ccc(COc2cc(-c3cccc(OC)c3)nc3ccc(NC(=O)c4ccccc4)cc23)cc1
→ -11%	i
72: CC1CCN(c2ccc(NC(=O)c3cccnc3Cl)cc2)CC1
→ -8%	-17%
73: CCNC(=O)COc1ccc(F)cc1C(=O)c1cnn(-c2ccccc2)c1
→ -16%	i
74: Cc1ccc(OCC(=O)NCCNC(=O)c2ccc(C)nc2)cc1
→ -9%	i
75: O=C1c2ccccc2NC(c2ccc3c(c2)OCO3)N1O (configuration not stated)
→ -16%	-8%
76: O=C(CN1CCN(S(=O)(=O)c2ccccc2)CC1)NC(=O)NCc1ccccc1
→ -12%	.
77: Cc1c(C(=O)OCC(O)=C(C#N)c2nc3ccccc3[nH]2)oc2ccc(Br)cc12
→ 0%	i
78: CC1CCN(C(=O)CNC(=O)c2ccc(Cl)cc2Cl)CC1
→ -25%	-7%
79: CCC(C)NC(=O)CCSc1nc(-c2ccc3c(c2)OCO3)cc(C(F)(F)F)n1 (configuration not stated)
→ -3%	-5%
80: COc1ccc(CSC2=C(C#N)C(=O)NC3(CCCCC3)S2)cc1
→ -12%	-27%
81: O=C1C(=O)N(c2ccccc2)c2ccccc21
→ 1%	-4%
82: Cn1c(=NC(=O)CS(=O)(=O)c2ccccc2)sc2ccccc21
→ -9%	i
83: COC(=O)N/N=C/c1cc([N+](=O)[O-])cc(Br)c1O
→ -15%	-26%
84: CCN(C(=O)C1=COCCO1)c1nc2c(C)cccc2s1
→ -6%	?
85: Cn1nc(C(F)(F)F)c(CO)c1Sc1ccc(F)cc1
→ -19%	i
86: CC1CCCC(C)N1C(=O)c1cccc2c1-c1ccccc1/C2=N/O (configuration not stated)
→ -9%	-14%
87: Cc1ccc(SCc2ccc(C(=O)Nc3ccccc3C(=O)NC(C)C)cc2)cc1
→ -9%	-16%
88: Cc1cc(C)cc(NC(=O)N2CCN(S(C)(=O)=O)CC2)c1
→ 5%	-2%
89: CCCc1nc2oc3c(=O)[nH]cnc3c2c2c1COC(C)(C)C2
→ -1%	-21%
90: O=C(NC1CC1)C(=O)c1c(-c2ccccc2)[nH]c2ccccc12
→ -19%	-6%

Of the compounds above, these contain a tert-butyl group.
Every second line gives: VACV Venus inh	Vaccinia mCherry
1: CC(C)(C)OC(=O)N1CCC(Cc2cc(-c3ccccc3)no2)(C(=O)O)CC1
→ -5%	i
56: CCOc1cc(CNn2cnnc2SCC(=O)NC(C)(C)C)ccc1OCC(=O)NC(C)(C)C
→ -10%	-9%

(list continues)
Every second line gives: VACV Venus inh	Vaccinia mCherry
91: CCOC(=O)C1=CN(Cc2cccc(I)c2)S(=O)(=O)N(C)C1C (configuration not stated)
→ -18%	i
92: Cc1ccc(C)c(CN2C(=O)COc3ccccc32)c1
→ -5%	-19%
93: CCCCN(CCCC)CCNC(=O)c1cn(C)c2ccc(S(=O)(=O)N3CCCC3)cc2c1=O
→ 1%	-12%
94: Cc1c(C(=O)NCc2ccc3c(c2)OCO3)cccc1[N+](=O)[O-]
→ -9%	-8%
95: O=C(NCCn1ccc2ccccc21)c1ccc(S(=O)(=O)N2CCCCC2)cc1
→ -5%	i
96: CC(NC(=O)CCc1nnc(CCCc2ccccc2)o1)c1ccccc1 (configuration not stated)
→ -11%	i
97: COc1ccc(/C=C/C(=O)Nc2sc(C)c(C)c2C(=O)O)cc1
→ 1%	-7%
98: CCC(=O)NCCCCCCNC(=O)CC
→ -2%	-6%
99: O=C(Nc1cc(C(F)(F)F)ccc1Cl)C(Sc1nnc(-c2cccs2)o1)c1ccccc1 (configuration not stated)
→ -8%	i
100: O=C(CSC1=NCCS1)Nc1ccnc2ccccc12
→ -29%	?
101: CC(=O)N1c2ccc(S(=O)(=O)NCCC(=O)N3CCC(C)CC3)cc2CC1C (configuration not stated)
→ 0%[7.34 µM]	i[7.34 µM]
102: CCOC(=O)c1cccc(NS(=O)(=O)Cc2ccccc2)c1
→ -6%	i
103: COc1ccc(C(=O)NC2CCN(CC(=O)N3CCCCC3)CC2)cc1
→ 9%	i
104: Cc1ccc(Nc2nc3c([nH]2)c(=O)[nH]c(=O)n3C)cc1
→ -2%	-10%
105: COc1cc(OC)c(NC(=O)Nc2c(C)n(C)n(-c3ccccc3)c2=O)cc1Cl
→ -6%	-13%

Values by screen from the entries so far.
VACV Venus inh for nos. 95–99: -5%, -11%, 1%, -2%, -8%
